# High-throughput results deposited in PubChem by National Center for Advancing Translational Sciences (NCATS).
# miR-21 FLuc: raises the signal of a miR-21 reporter; AID 2288; Potency, µM (highest dose often 38.3 µM), for the others: at the highest dose reporter change, positive = more light; HeLa miR-21 FLuc reporter, luciferase, 48 h; 340,000 tested, under 10 active; active = well fitted rising curve with a large enough effect; inconclusive = small, poorly fitted or top-dose-only effect; inactive = no such curve, though single readings can be large or run the other way;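 note: % of control where 0% means no effect; miR-21 action dims this reporter so a rising signal means less miR-21 action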
#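 Luminescence from a firefly luciferase reporter carrying a miR-21 binding site downstream, stably expressed under a CMV promoter in HeLa cells that make miR-21 endogenously, reports miRNA modulation after 48 h compound exposure up to approximately 40uM final.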
# Rango-impB inh: prevents formation of the Rango-importin beta complex; 340,000 tested, 0.031% active; Potency, µM (doses to about 92.2 µM), without a hit: at the highest dose inhibition of complex formation; Rango CFP/YFP FRET sensor + importin beta, 45 min; AID 540263; Q14974; active = rising FRET ratio curve, often small or poorly fitted; inconclusive = mostly compound fluorescence or quenching in the first reads; inactive = flat curves in all reads;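 note: potency is the fitted concentration of half-maximal effect; 0% = DMSO wells and 100% = buffer wells lacking importin beta; nearly all actives have a fitted effect of over 15% in size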
# Target sequence (Q14974 whole entry, looked up): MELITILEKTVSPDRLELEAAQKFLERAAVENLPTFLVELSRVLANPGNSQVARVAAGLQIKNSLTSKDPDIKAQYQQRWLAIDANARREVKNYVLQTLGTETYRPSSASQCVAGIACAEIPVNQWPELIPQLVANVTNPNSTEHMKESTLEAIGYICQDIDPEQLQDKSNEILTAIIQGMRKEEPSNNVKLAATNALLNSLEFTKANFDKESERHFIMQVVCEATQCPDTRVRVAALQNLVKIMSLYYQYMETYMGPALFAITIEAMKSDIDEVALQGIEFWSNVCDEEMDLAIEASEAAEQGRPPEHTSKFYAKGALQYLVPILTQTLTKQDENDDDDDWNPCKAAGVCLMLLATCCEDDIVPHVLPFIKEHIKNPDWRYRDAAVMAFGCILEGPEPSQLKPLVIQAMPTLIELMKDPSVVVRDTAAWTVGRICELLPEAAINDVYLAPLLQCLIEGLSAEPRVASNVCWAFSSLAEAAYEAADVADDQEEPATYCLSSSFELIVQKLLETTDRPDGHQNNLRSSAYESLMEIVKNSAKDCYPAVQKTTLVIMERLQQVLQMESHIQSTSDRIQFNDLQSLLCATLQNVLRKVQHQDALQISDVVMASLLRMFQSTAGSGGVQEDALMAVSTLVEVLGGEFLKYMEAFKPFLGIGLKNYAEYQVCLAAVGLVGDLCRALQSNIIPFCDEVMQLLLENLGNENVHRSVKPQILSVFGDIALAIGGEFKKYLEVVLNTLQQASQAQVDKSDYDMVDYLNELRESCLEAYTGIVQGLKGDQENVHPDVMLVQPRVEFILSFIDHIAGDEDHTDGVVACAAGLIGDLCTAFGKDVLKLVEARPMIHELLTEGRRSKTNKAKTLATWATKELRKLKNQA
#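 FRET biosensor Rango (snurportin 1 IBB between N-terminal EYFP and C-terminal Cerulean), 50 nM in PBS/1 mM DTT/0.02% Tween-20/0.1% BSA, preincubated 5 min RT with compound; 0.125 microM importin beta added, 45 min RT, CFP/YFP FRET ratio read.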
# Rango release inh: inhibitors of RanGTP-induced Rango-importin beta complex dissociation | Potency, µM (doses to about 46.1 µM), inactives show at the top dose activity change, negative = inhibition | 340,000 tested, 0.071% active | Biochemical FRET Rango-importin beta, RanGTP-induced dissociation; active means falling FRET ratio curve, often poorly fitted, with flat reads before Ran was added; inconclusive means other falling curves, or compound fluorescence or quenching; inactive means flat or rising ratio curve;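 note: potency is the fitted concentration of half-maximal effect; % of control where 0% means no effect; nearly all actives have a fitted effect of over 45% in size; -100% = wells without RanGTP and RCC1; the record marks most hits as doubtful in a second field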
#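 FRET read at 45 min, room temperature: inhibitors block the CFP/YFP signal rise when RanGTP (0.6 uM Ran, 2 mM GTP, 0.2 uM RCC1) frees Rango (0.1 uM) from importin beta (0.25 uM). Pre-read after 5 min compound exposure flags interference.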
# GLA inh pH 4.5: blocks human alpha-galactosidase A at pH 4.5 | P06280 | purified enzyme, 4-MU-alpha-Gal fluorescence, pH 4.5 | activity change, negative = inhibition, % at 105 µM | 230,000 tested, under 10 active | AID 1467; inconclusive = small, poorly fitted or top-dose-only inhibition, or a rising curve; inactive = flat fitted curve, though single readings scatter; no compound was filed as active;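 note: 0% = full activity with enzyme and -100% = basal without enzyme; dose as in the result columns while the protocol names 77 µM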
# * = called active by the depositor; ? = inconclusive; . = no result given; & = joins results of further samples; [ ] = dose if it differs, or a comment.
SMILES	miR-21 FLuc	Rango-impB inh	Rango release inh	GLA inh pH 4.5
O=C(COC(=O)c1ccc(NS(=O)(=O)c2ccc3c(c2)OCCO3)cc1)NCC1CCCO1 (centres undefined)	-6%	-1.6%	23%	-2
CCn1nnnc1-c1ccc(OC)c(S(=O)(=O)Nc2ccc(C(=O)OC)cc2)c1	-9%	-6.1%	-19%	0
CC1CCCC(C)N1/N=C/c1ccc(C(=O)O)cc1 (centres undefined)	1%	0.6%	-15%	2
Nc1ccc(C(=O)N2CCN(S(=O)(=O)/C=C/c3ccccc3)CC2)cc1[N+](=O)[O-]	.	2.5%	15%	.
Cc1c(C(=O)NNC(=S)Nc2ccc(S(N)(=O)=O)cc2)oc2ccccc12	-1%	1.3%	11%	.
COC(=O)c1cc(NS(=O)(=O)c2ccc(C(C)C)cc2)ccc1N1CCOCC1	-1%	0.8%	-16%	-4
CCOc1ccc(NS(=O)(=O)c2ccc(C(=O)NCC(c3ccc(OC)cc3)N3CCCC3)cc2)cc1 (centres undefined)	.	0.0%	-21%	.
Cc1[nH]c(=O)[nH]c(=O)c1/C=N/NC(=O)CCNC(=O)OC(C)(C)C	-4%	4.6%	19%	-2
Cc1nnc2c(NCC(C)c3ccccc3)nc3ccccc3n12 (centres undefined)	1%	-4.3%	7%	.
O=C(COc1ccccc1/C=C\c1[nH]c(=O)[nH]c(=O)c1[N+](=O)[O-])Nc1ccccc1	-44%	-0.5%	-9%	-8
O=C(NNC(=O)c1ccc(Cl)s1)c1csc(N2CCOCC2)n1	.	-5.3%	4%	.
CCN1CCN(Cc2c(O)ccc3c2O/C(=C\C=C\c2ccccc2)C3=O)CC1	?	1.9%	?	-3
Cc1cc(C)cc(NC(=O)NC2CCN(CC(=O)Nc3cccc(Cl)c3C)CC2)c1	-3%	-1.5%	1%	-14
CCCS(=O)(=O)NCCc1csc(-c2ccc(OC)c(OC)c2)n1	-2%	-0.1%	9%	-3
Cc1ccccc1C(=O)NCC(=O)c1ccccc1	.	-0.5%	8%	.
CC(C)C[C@@H](CNCC(=O)[C@H](Cc1ccccc1)NC(=O)c1[nH]cnc1C(=O)N[C@H](CN)CC(C)C)NC(=O)c1nc[nH]c1C(=O)N[C@@H](CC(=O)O)C(=O)O	.	-1.3%	17%	.
CCn1c(CNC(=O)c2ccccc2F)cc2cc(C)ccc21	-36%	1.8%	11%	.
COc1ccc(CC(=O)Nc2ccc3c(c2)C(=O)N(CCC(=O)O)C3=O)cc1	0%	1.6%	38%	.
COc1ccc(CCN2CC(C(=O)O)CC2=O)cc1OC (centres undefined)	-1%	-1.8%	-20%	9
COc1ccc(NC(=O)Nc2nnc(-c3ccccc3SCc3ccccc3)s2)cc1	-5%	-0.8%	0%	-9
N#CCC(=O)NNC(=S)NC(=O)C(c1ccccc1)c1ccccc1	0%	-1.1%	2%	-1
COCCOC(=O)C1=C(C)NC(=O)NC1c1ccco1 (centres undefined)	-1%	1.8%	-3%	4
CCOC(=O)c1cc[nH]c1C	0%	2.8%	-22%	0
COc1cccc(-c2nc(NCc3cccnc3)c3ccccc3n2)c1O	-27%	-4.3%	0%	.
O=C(NCCCN1CCCCCC1)C1CCCN(S(=O)(=O)c2cccc3nsnc23)C1 (centres undefined)	-1%	1.8%	1%	-5[21.1 µM]
CCOC(=O)c1ccc(N2C(=O)CC(NNC(=O)c3ccc(Br)s3)C2=O)cc1 (centres undefined)	-17%	0.6%	12%	3
O=S1(=O)CC(O)C(Nc2ccccc2)C1 (centres undefined)	-3%	3.0%	18%	0
Cc1cccc(N(CC(=O)NC(C)(C)C)C(=O)CS(=O)CC(=O)Nc2ccc3c(c2)OCO3)c1 (centres undefined)	-4%	2.7%	-15%	4
CCS(=O)(=O)Nc1ccc(Cc2ccncc2)cc1	-5%	5.1%	-10%	-6
CCc1ccc2oc(-c3cc(N)ccc3O)nc2c1	-26%	6.0%	0%	1
O/N=C(/c1ccccc1)c1cc2cc(Br)cc(Br)c2o1	-10%	-1.1%	-7%	.
CS(=O)(=O)NCc1nnc(SCc2ccccc2C(F)(F)F)o1	-11%	5.0%	0%	7

# The listing continues.
# Values run as follows: miR-21 FLuc, Rango-impB inh, Rango release inh, GLA inh pH 4.5
N#Cc1c2c(c(NCCOCCO)n3c1nc1ccccc13)CCCC2
  7%, ?, ?, -4
CC(=O)Nc1cccc(-n2nnc(SCC(=O)c3ccccc3)n2)c1
  -32%, -1.3%, 1%, -1
O=C(NCCCOc1cccc(CN2CCCCC2)c1)c1ccc(Cl)c(Cl)c1
  -7%, -1.6%, 5%, 0
O=C(NCc1cccs1)c1cc2c(s1)CCCC2
  -46%, 2.8%, -13%, -2
O=[N+]([O-])c1cc(C(F)(F)F)ccc1NCCCCNS(=O)(=O)c1ccc(Cl)cc1
  1%, -1.7%, ?, -18
Cc1csc2ncc(C(=O)Nc3ccccc3F)c(=O)n12
  -28%, 0.8%, 12%, 2
Cc1ccc(CNC(=O)CCc2nnc3ccc(NCCCN4CCCC4=O)nn23)cc1
  -4%, -3.9%, ?, .
COc1ccc(Cl)cc1NS(=O)(=O)c1ccc(OC)c(OC)c1
  1%, 8.8%, 5%, -2
O=C(CCN1C(=O)c2ccccc2C1=O)Nc1ccc(-c2nc3ccccc3o2)cc1
  -24%, -0.2%, 0%, 4
O=C1CC(NN2CCCCC2)C(=O)N1c1ccccc1 (centres undefined)
  -8%, -2.2%, 1%, 7
COc1ccc(C(=O)NC(C)Cn2nc(C)cc2C)cc1OC1CCN(C(C)=O)CC1 (centres undefined)
  -2%, 2.6%, 0%, .
Cc1nnc(NC(=O)CSc2nccn2Cc2ccccc2)s1
  -1%&-1%, -0.8%, 0%, .
O=[N+]([O-])c1ccc(-c2ccc(S(=O)(=O)NCCN3CCCC3)cc2)cc1
  19%, 0.8%, 12%, -7
COCCNC(=O)CSc1ccccc1C(=O)NC1CCSc2ccccc21 (centres undefined)
  -7%, 5.9%, 13%, .
Cc1ccc(S(=O)(=O)N2CCN(S(=O)(=O)N3CCC(C)CC3)CC2)cc1C
  -1%, -0.6%, 0%, .
CC(C)C(=O)Nc1cccc(NC(=O)c2cccnc2)c1
  -2%, 1.7%, 13%, 1
O=C(COc1ccccc1)Nc1ccccc1Cl
  -60%, 0.8%, -7%, -3
CC(C)c1ccccc1NC(=O)COC(=O)C1(C)CC1(Cl)Cl (centres undefined)
  -2%, 1.3%, 0%, 5
COc1ccc(CNC(=O)CCN2C(=O)c3ccccc3S2(=O)=O)cc1
  ., 2.8%, -7%, .
O=C(COC(=O)C1CC2C=CC1C2)NCc1ccc(F)cc1 (centres undefined)
  -2%, 1.0%, 1%, 6
O=C1C(Cl)=C(N2CCCCCC2)C(=O)N1c1ccc(Cl)cc1
  -2%, ?, -9%, .
COc1ccc(NC(=O)c2sc(SC)nc2N)cc1
  -47%, 1.3%, 12%, 3
CCOc1ccc(-n2c(C)c(C(C)=O)c3cc(OC(C)=O)ccc32)cc1
  5%, 0.2%, -3%, .
S=c1[nH]nc(-c2ccco2)n1/N=C/C=C/c1ccccc1
  -3%, 0.7%, 9%, 2
Cn1cc(CN2CCc3ccccc3C2)c2ccccc21
  -4%, 0.0%, -4%, -4
O=C(c1ccc(NC2=NC3CS(=O)(=O)CC3S2)cc1)N1CCN(C(=O)c2ccco2)CC1 (centres undefined)
  -5%, ?, 2%, 6
O=C(Cn1nc(C(F)(F)F)cc1C1CC1)Nc1ccccc1F
  3%, -2.8%, 6%, 0
O=C(Nc1ccc(F)cc1F)NC1CC(=O)N(Cc2ccccc2)C1 (centres undefined)
  -1%, 2.2%, -8%, -2
CCOC(=O)N1CCC(NC(=O)CSCc2nc(-c3ccc(OC)c(OC)c3)oc2C)CC1
  -8%, 1.4%, -5%, 1
CCCCC(=O)N1CCN(c2ccc(OC)cc2[N+](=O)[O-])CC1
  0%, -2.7%, 3%, 7

# 7 entries from above in another layout.
miR-21 FLuc	Rango-impB inh	Rango release inh	GLA inh pH 4.5	smiles
-47%	1.3%	12%	3	COc1ccc(NC(=O)c2sc(SC)nc2N)cc1
.	2.8%	-7%	.	COc1ccc(CNC(=O)CCN2C(=O)c3ccccc3S2(=O)=O)cc1
.	0.0%	-21%	.	CCOc1ccc(NS(=O)(=O)c2ccc(C(=O)NCC(c3ccc(OC)cc3)N3CCCC3)cc2)cc1 (centres undefined)
-28%	0.8%	12%	2	Cc1csc2ncc(C(=O)Nc3ccccc3F)c(=O)n12
-9%	-6.1%	-19%	0	CCn1nnnc1-c1ccc(OC)c(S(=O)(=O)Nc2ccc(C(=O)OC)cc2)c1
-26%	6.0%	0%	1	CCc1ccc2oc(-c3cc(N)ccc3O)nc2c1
-44%	-0.5%	-9%	-8	O=C(COc1ccccc1/C=C\c1[nH]c(=O)[nH]c(=O)c1[N+](=O)[O-])Nc1ccccc1

# (continued)
# Values run as follows: miR-21 FLuc, Rango-impB inh, Rango release inh, GLA inh pH 4.5
CCOC(=O)N/N=C/c1ccc(F)cc1
  -38%, 4.7%, -1%, 9
CC(=O)c1cccc(CN(C)CC2CCCN(CCc3ccccc3C)C2)c1 (centres undefined)
  5%, 4.7%, 15%, .
O=C(CN1C(=O)c2cccc([N+](=O)[O-])c2C1=O)N1CCN(c2ccc(F)cc2)CC1
  1%, 0.8%, 17%, 8
COc1cccc(NC(=O)CN(C)C(=O)CSc2nc3ccccc3s2)c1
  ., -1.5%, -7%, .
CN1CCN(S(=O)(=O)c2ccc(Nc3ccc(F)cc3)c([N+](=O)[O-])c2)CC1
  ., 6.9%, -8%, .
COc1ccc(/C=C(\NC(=O)c2ccco2)C(=O)NCc2ccco2)cc1
  -4%, 3.3%, 9%, .
O=C(COC(=O)c1ccc(O)cc1)Nc1cc(C(F)(F)F)ccc1Cl
  -1%, -1.8%, -11%, 4
C=CCN(c1ccccc1Cl)S(=O)(=O)c1cc(C(=O)N2CCCC2)ccc1Cl
  5%, 2.6%, -5%, -12
CC(=O)Nc1ccc(S(=O)(=O)NCc2ccccn2)cc1
  -6%, 3.1%, -12%, -6
CCN(CC)c1cccc(OCC(=O)N(C)CCC#N)c1
  -12%, ?, ?, -5
O=C(NC(=S)N(CCc1ccccc1)CCc1ccccc1)c1ccco1
  19%, 1.1%, -3%, 6
Cc1ccc(NC(=O)C2CCN(C(=O)NC3CCCCC3)CC2)cc1Cl
  -5%, -0.7%, -4%, -4
O=C1CSC(c2ccc3c(c2)OCO3)N1c1ccc(Oc2ccccc2)cc1 (centres undefined)
  -2%, 2.8%, 2%, 2
O=C(COC(=O)Cc1ccc(Cl)cc1)NC1CCCC1
  ., 5.4%, -1%, .
CC(C)n1nnnc1SCC(=O)NCCc1ccccc1
  -21%, 0.7%, 2%, 5
CCN(C1CCCCC1)S(=O)(=O)c1ccc(S(=O)(=O)NCCc2ccncc2)cc1
  4%, -1.4%, -2%, -17
CCCc1cc(C(=O)N2CCN(c3ccc(C(F)(F)F)cn3)CC2)sc1C
  0%, -0.4%, 0%, .
CCOc1ccc(N(C(=O)c2snc(C(N)=O)c2N)C(C(=O)NCC2CCCO2)c2c[nH]c3ccccc23)cc1 (centres undefined)
  24%, ?, -1%, .
COc1ccc([C@@H]2Sc3cc(OC)ccc3N(CCN(C(C)C)C(C)C)C(=O)[C@H]2OC(C)=O)cc1
  0%, -0.5%, -17%, -13
O=c1[nH]cccc1-c1nc2ccccc2n1Cc1cccc(F)c1
  -1%, ?, -3%, .

# Only part of the results is shown (hit frequency here may not be typical).
